Compound activity: PubChem, ICCB-Longwood Screening Facility, Harvard Medical School
p53 nuclei = nuclear p53 accumulation, HPV+ cells – imaging, p53-positive nuclei imaging, 24 h, 48 h (AID 1508601) | p53-positive nuclei, normalised, % at 11 µM unless noted | p53-positive nuclei imaging, 48 h; active compounds read high; some inactives read as strong as hits | 1% of 5,700 active;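 active = mean of two plates above 50% at 24 h or at 48 h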;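 also: HPV-positive HeLa cells with a fluorescent p53 stability reporter; 0% = vehicle and 100% = proteasome inhibitor control; doses worked out from stocks diluted about 900-fold with the highest of each compound shown; many of its hits are not listed in these tables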
p53 nuclei cells 24 h = second read-out of p53 nuclei, no call of its own (marks repeat the call); nuclei count, normalised, %; measured here: cell number at 24 h;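 100% = vehicle wells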
p53 nuclei p53 24 h = also measured in p53 nuclei; calls as there; p53-positive nuclei, normalised, %; measured here: p53 positive nuclei at 24 h;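 0% = vehicle and 100% = positive control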
p53 nuclei cells 48 h = further read-out of p53 nuclei, marked with its call; nuclei count, normalised, %; measured here: cell number at 48 h;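 100% = vehicle wells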
An asterisk follows results filed as active; [ ] = dose if it differs, or a comment.

SMILES | p53 nuclei | p53 nuclei cells 24 h | p53 nuclei p53 24 h | p53 nuclei cells 48 h
COC1=CC(C)=CC(C)C(O)C(C)CC(C)=CC=CC(OC)[C@H](C(C)C(O)C(C)[C@@]2(O)CC(O)C(C)C(C(C)C)O2)OC1=O (some centres undefined) | 24 | 78 | 17 | 46
c1ccc2c(c1)sc1ccccc12 | 0.0[3.7 µM] | 111 | -0.2 | 107
COc1ccc(C(=O)c2c(C)n(CCN3CCOCC3)c3cc(I)ccc23)cc1 | -0.2 | 113 | -0.2 | 120
O=C(O)CC[N+](=O)[O-] | 0.3 | 106 | 0.3 | 104
C[C@]12NC(Cc3ccccc31)c1ccccc12 | -0.1[3.7 µM] | 121 | -0.6 | 112
COc1ccc(-n2nc(C(F)(F)F)cc2-c2ccc(Cl)cc2)cc1 | -0.2 | 103 | 0.0 | 112
N#CC(=Cc1ccc(O)cc1)C(=O)O | 0.3 | 106 | 0.3 | 111
NC(=O)CN1CCCC1=O | -0.1[3.7 µM] | 92 | -0.2 | 94
CC1CCCC=C[C@@H]2CC(O)C[C@H]2C(O)C=CC(=O)O1 (some centres undefined) | 4.3[3.7 µM] | 50 | -0.2 | 33
Cc1cc(C(=O)CN2CCCC2)c(C)n1-c1ccc(F)cc1 | 0.1 | 77 | 0.3 | 81
N#CC(C#N)=Cc1ccc(O)c(O)c1 | -0.1[3.7 µM] | 115 | -0.4 | 111
COc1ccc(S(=O)(=O)N(CCO)c2ccccc2CN(C)CC=Cc2ccc(Cl)cc2)cc1 | -0.2[3.7 µM] | 111 | -0.3 | 105
CC(=O)Nc1ccc(Cc2ccc(NC(C)=O)cc2)cc1 | -0.1[3.7 µM] | 100 | -0.3 | 96
Cc1ccccc1-n1c(Cn2ncc3c(N)ncnc32)nc2cccc(C)c2c1=O | 0.0[3.7 µM] | 109 | -0.3 | 97
CC1CN(Cc2ccc(F)cc2)CCN1C(=O)COc1ccc(Cl)cc1NC(N)=O (centres undefined) | -0.3 | 116 | 0.0 | 112
[N-]=[N+]=CC(=O)OC[C@@H](N)C(=O)O | -0.2 | 95 | -0.1 | 92
CCNC(=O)CC1N=C(c2ccc(Cl)cc2)c2cc(OC)ccc2-n2c(C)nnc21 (centres undefined) | 0.7 | 132 | 4.6 | 128
CN(C)CCc1ccc(O)cc1 | 0.0[3.7 µM] | 99 | -0.1 | 98
N#Cc1cn(C2OC(CO)C(O)C2O)c2ncnc(N)c12 (centres undefined) | 7.3 | 48 | 1.9 | 27
CN(C(=O)C(c1ccccc1)c1ccccc1)C(CN1CCC(O)C1)c1ccccc1 (centres undefined) | 0.2 | 107 | 0.1 | 107
CC[C@@]1(O)C(=O)OCc2c1cc1n(c2=O)Cc2cc3ccccc3nc2-1 | 38[3.7 µM] | 48 | 15 | 36
Cc1c(C(=O)Nc2cccc(C(F)(F)F)c2)cc(-c2ccccc2)n1CCCN1CCOCC1 | 0.2 | 102 | -0.1 | 101
Cc1[nH]nc2ccc(-c3cncc(OCC(N)Cc4c[nH]c5ccccc45)c3)cc12 (centres undefined) | 1.2 | 43 | 0.8 | 29
CC(C)[C@@]12OC1C1O[C@]13[C@]1(OC1C[C@@H]1C4=C(CC[C@@]13C)C(=O)OC4)C2O (some centres undefined) | 0.6[3.7 µM] | 22 | 0.1 | 17
COc1cc(-n2c(=S)[nH]c3ccccc3c2=O)c(Cl)cc1Cl | -0.1[3.7 µM] | 112 | -0.3 | 108
Cn1c(CCCC(=O)O)nc2cc(N(CCCl)CCCl)ccc21 | -0.6[3.7 µM] | 108 | -0.3 | 103
Fc1cc(F)c2c(c1)[C@H]1C=CC[C@@H]1C(c1cccnc1)N2 (some centres undefined) | 5.0[3.7 µM] | 68 | -0.2 | 40
CCCC[N+]1(C)[C@@H]2CC(OC(=O)C(CO)c3ccccc3)C[C@H]1[C@@H]1O[C@@H]12 (some centres undefined) | -0.2[3.7 µM] | 103 | -0.2 | 101
c1cc2ccc3cccc4ccc(c1)c2c34 | -0.1 | 119 | -0.1 | 110
C1CCC(NC2CCCCC2)CC1 | 0.0 | 107 | -0.2 | 104

Part of the list above in order of length of the SMILES, smallest number first:
SMILES | p53 nuclei | p53 nuclei cells 24 h | p53 nuclei p53 24 h | p53 nuclei cells 48 h
NC(=O)CN1CCCC1=O | -0.1[3.7 µM] | 92 | -0.2 | 94
N#CC(C#N)=Cc1ccc(O)c(O)c1 | -0.1[3.7 µM] | 115 | -0.4 | 111
[N-]=[N+]=CC(=O)OC[C@@H](N)C(=O)O | -0.2 | 95 | -0.1 | 92
CC(=O)Nc1ccc(Cc2ccc(NC(C)=O)cc2)cc1 | -0.1[3.7 µM] | 100 | -0.3 | 96
Cc1cc(C(=O)CN2CCCC2)c(C)n1-c1ccc(F)cc1 | 0.1 | 77 | 0.3 | 81
COc1cc(-n2c(=S)[nH]c3ccccc3c2=O)c(Cl)cc1Cl | -0.1[3.7 µM] | 112 | -0.3 | 108
COc1ccc(-n2nc(C(F)(F)F)cc2-c2ccc(Cl)cc2)cc1 | -0.2 | 103 | 0.0 | 112
Fc1cc(F)c2c(c1)[C@H]1C=CC[C@@H]1C(c1cccnc1)N2 (some centres undefined) | 5.0[3.7 µM] | 68 | -0.2 | 40
COc1ccc(C(=O)c2c(C)n(CCN3CCOCC3)c3cc(I)ccc23)cc1 | -0.2 | 113 | -0.2 | 120
CN(C(=O)C(c1ccccc1)c1ccccc1)C(CN1CCC(O)C1)c1ccccc1 (centres undefined) | 0.2 | 107 | 0.1 | 107
Cc1[nH]nc2ccc(-c3cncc(OCC(N)Cc4c[nH]c5ccccc45)c3)cc12 (centres undefined) | 1.2 | 43 | 0.8 | 29
COc1ccc(S(=O)(=O)N(CCO)c2ccccc2CN(C)CC=Cc2ccc(Cl)cc2)cc1 | -0.2[3.7 µM] | 111 | -0.3 | 105
CCCC[N+]1(C)[C@@H]2CC(OC(=O)C(CO)c3ccccc3)C[C@H]1[C@@H]1O[C@@H]12 (some centres undefined) | -0.2[3.7 µM] | 103 | -0.2 | 101
CC(C)[C@@]12OC1C1O[C@]13[C@]1(OC1C[C@@H]1C4=C(CC[C@@]13C)C(=O)OC4)C2O (some centres undefined) | 0.6[3.7 µM] | 22 | 0.1 | 17

Not all compounds are listed; count on the stated rates, not on these rows.
